Mtb H37Rv: M. tuberculosis H37Rv growth inhibitors, H37Rv strain (AID 1626) | M. tuberculosis H37Rv growth inhibition; higher % means a stronger effect | one-dose inhibition, % at 10 µM; IC50 in µM for titrated hits | hit rate 0.95% among 220,000;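 active = confirmed in a dose series; inconclusive = inhibition above 80% but not taken into the dose series; inactive = below 80% or under 30% at every dose of the series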;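 note: bacteria incubated seven days before Alamar blue readout; 0% = bacteria only wells and 100% = bacteria with antibiotic wells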
Arbovirus anti: antivirals against arbovirus infection, primary screen, cell-based, full library, 10K replicate subset; arbovirus infection cell-based antiviral screen; inhibition, % at 10 µM; hit rate 0.37% among 200,000; AID 1251, 2008;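 active = inhibition from about 30%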;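 note: bluetongue infection of BSR cells; cell survival read as ATP light after 72 h; 0% = infected wells without compound and 100% = uninfected wells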
Mtb bLac sens: beta-lactam sensitization of Mtb H37Rv, H37Rv; AID 434955, 2010; inhibition, % at 25 µM; M. tuberculosis H37Rv growth with meropenem, percent inhibition; hits of this screen are not shown here; hit rate 0.27% among 330,000;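 active = about 74% or more and at least 40 points above the plate without the antibiotic, then above 30% in a dose series; inconclusive = first-round hits that could not be retested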;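 note: growth measured after seven days incubation then overnight dye step; 0% = bacteria only wells and 100% = bacteria with antibiotic; twin plates without the antibiotic show which effects depend on it; some results filed as inactive read as strong as hits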
YopH PTP inh: YopH tyrosine phosphatase inhibitors, primary screen, biochemical, fluorescence Ex485/Em525. AID 898, 2007. inhibition, %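 (about 10 µM by stock and volumes)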. hit rate 0.16% among 140,000;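 active = inhibition of 50% or more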;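 note: controls were vehicle for no effect and minimum signal wells for full effect; inactives centre near -20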
RecA intein inh: Mtb RecA intein splicing inhibitors, primary screen, biochemical, fluorescence, HTS; hit rate 0.75% among 290,000; cell-free RecA intein splicing; inhibition, %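 (about 9 µM by stock and volumes)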; in the data active = inhibition above about 30%; inconclusive = no clear call, values can overlap the other calls;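 note: 0% = vehicle wells and 100% = reference inhibitor control wells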
Target sequence (P9WHJ3 whole entry, looked up): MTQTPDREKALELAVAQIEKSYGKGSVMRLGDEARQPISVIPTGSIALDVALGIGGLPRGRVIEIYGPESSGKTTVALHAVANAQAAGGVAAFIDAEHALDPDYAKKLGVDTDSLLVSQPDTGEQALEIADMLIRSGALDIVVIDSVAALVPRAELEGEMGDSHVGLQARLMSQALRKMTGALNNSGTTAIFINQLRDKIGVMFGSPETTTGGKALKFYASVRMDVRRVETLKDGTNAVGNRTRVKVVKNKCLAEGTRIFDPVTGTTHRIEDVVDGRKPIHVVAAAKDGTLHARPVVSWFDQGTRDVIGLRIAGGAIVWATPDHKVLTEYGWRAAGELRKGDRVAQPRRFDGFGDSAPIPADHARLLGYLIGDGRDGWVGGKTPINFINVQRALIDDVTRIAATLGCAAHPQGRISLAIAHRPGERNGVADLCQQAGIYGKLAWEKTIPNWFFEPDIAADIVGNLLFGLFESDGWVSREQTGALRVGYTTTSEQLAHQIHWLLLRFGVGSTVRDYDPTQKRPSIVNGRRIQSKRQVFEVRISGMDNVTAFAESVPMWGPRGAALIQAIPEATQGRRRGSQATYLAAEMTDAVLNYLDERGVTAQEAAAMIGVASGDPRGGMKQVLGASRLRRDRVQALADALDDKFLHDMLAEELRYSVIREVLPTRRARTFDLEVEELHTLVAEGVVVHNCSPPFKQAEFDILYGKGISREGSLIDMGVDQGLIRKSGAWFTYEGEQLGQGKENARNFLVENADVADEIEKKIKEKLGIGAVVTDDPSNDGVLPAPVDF
Arbovirus anti repeat: second read-out of Arbovirus anti, no call of its own (marks repeat the call); inhibition, %; measured here: 10K subset replicate screen; many hits read low in the repeat;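 first of two repeat runs on a subset; 0% = infected and 100% = uninfected wells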
* hit, by the source's call; ? = inconclusive; . = not tested or not shown. A portion of the library (hit frequency here may not be typical).

SMILES	Mtb H37Rv	Arbovirus anti	Mtb bLac sens	YopH PTP inh	RecA intein inh	others
Cc1cc(C)c2c(CN3CC(C)OC(C)C3)cc(=O)oc2c1C (configuration not stated)	.	.	-2.9	.	0.3
C=C(C)COc1ccc(-c2ncnc(C(F)(F)F)c2-c2ccc(OC)cc2)c(O)c1	.	.	3.6	.	1.4
CCN1C[C@@]2(COC)C3[C@@H](OC)[C@H]4[C@@H]1[C@@]3(C1C[C@@]3(O)[C@H](OC(=O)c5ccccc5)C1[C@]4(OC(C)=O)[C@@H](O)[C@H]3OC)[C@@H](OC)C[C@H]2O (some centres not stated)	4.7%	.	3.9	.	4.2
CCCC(=O)Nc1ccc2c(c1)Cc1ccccc1-2	.	.	74.2	.	0.3
Cc1cc(Cl)c2oc(C(=O)NCCN3CCCCC3CO)c(C)c2c1 (configuration not stated)	.	.	?	.	0.8
O=C(Nc1ccccc1Cl)/C(Cl)=C(\Cl)S(=O)c1ccccc1 (configuration not stated)	?	-29.2	100.3	.	97.0*
COc1ccc(NC(=O)C2CCN(S(=O)(=O)c3ccc4c(c3)NC(=O)CO4)CC2)cc1	.	.	-0.1	.	4.4
COC(=O)CCNC(=O)Cn1cnc2sc3c(c2c1=O)CCCC3	3.7%	6.1	-2.3	.	-2.2
Cc1c(C(=O)Nc2ccccc2F)sc2ncn(CC(=O)N3CCOCC3)c(=O)c12	.	.	3.1	.	5.0
CCCCn1nc(CC(=O)NCCN(CC)CC)c2ccccc2c1=O	-0.9%	.	-4.7	.	-3.6
O=C(c1cc(-c2ccncc2)nc2c(Cl)cccc12)N1CCN(c2ccccc2F)CC1	.	.	67.8	.	4.0
O=C(Nc1nnc(C2CC2)s1)C1=NN(C2CCS(=O)(=O)C2)C(=O)CC1 (configuration not stated)	7.5%	7.9	1.1	.	-0.1
Cc1nc(NC2=NC(C(=O)Nc3ccc(Cl)cc3)CC(=O)N2)nc2ccccc12 (configuration not stated)	-12.7%	7.2	.	-40.9	.
COc1ccc(CCNC(=O)c2cccc(NS(=O)(=O)c3ccccc3F)c2)cc1OC	.	.	-18.3	.	1.9
COc1cc(/C=C2/C(=O)ON=C2c2ccccc2)ccc1O	-2.8%	-0.9	7.5	-18.9	-1.0
Cc1cccc(C)c1OCc1cc(C(=O)N2CCCCCCC2)no1	.	.	?	.	5.8
CCOc1ccc(C(=O)Nc2ccc(N3CCCC3)cc2)cc1	3.2%	-3.2	8.1	-5.4	-1.7
C1CN=C(NC23CC4CC(CC(C4)C2)C3)C1	-3.0%	-2.8	-7.7	-23.8	0.1
O=C(c1c(F)cccc1F)N(Cc1cccs1)C1CCCC1	-1.8%	-13.9	0.5	.	4.2
Cc1cc(NC(=O)COC(=O)Cn2c(C)csc2=O)ccc1Br	.	.	-6.3	.	-0.5
CN(Cc1nc(-c2cnccn2)no1)CC(O)c1ccccc1 (configuration not stated)	-4.0%	5.1	-0.9	.	1.8
O=C(NN1C(=O)c2ccccc2NC1c1cccnc1)c1ccc([N+](=O)[O-])cc1 (configuration not stated)	-6.1%	10.0	-3.2	.	1.7
Cc1ccc(C2Nc3ccccc3C(=O)N2CCCN2CCOCC2)cc1 (configuration not stated)	2.2%	.	-2.0	.	-2.4
Cn1c(=O)c(=O)n(C)c2cc(S(=O)(=O)N3CCCC3C(=O)NCc3cccs3)ccc21 (configuration not stated)	-6.2%	.	-4.8	.	-2.1
CCOC(=O)C(c1ccccc1)C(Nc1cc(C(F)(F)F)cc(C(F)(F)F)c1)c1ccccn1 (configuration not stated)	-2.7%	.	0.8	.	-2.9
Cc1ccccc1C1NC(c2ccccc2C)C(C)C(=O)C1C (configuration not stated)	.	.	5.3	.	9.3
Cc1cc(C)cc(N(C(=O)c2csnn2)C(C(=O)NC(C)(C)C)c2cccnc2)c1 (configuration not stated)	-4.4%	-4.3	-1.8	.	-2.2
CC(=O)Nc1ccc(S(=O)(=O)N2CCN(Cc3csc(C)n3)CC2)cc1	.	.	?	.	2.5
O=C(CC1N=C2c3ccccc3N=C(SCc3ccc(F)cc3)N2C1=O)NCc1ccco1 (configuration not stated)	-13.2%	-7.8	-3.0	16.6	7.6
CCCCCCCNC(=O)C1(CC2CC(c3ccc(Cl)cc3)=NO2)CCN(C(=O)C2CCCC2)CC1 (configuration not stated)	.	.	-4.1	.	3.7
Cc1cccc(C)c1NC(=O)c1sc(N)nc1-c1ccccc1	6.8%	14.8	-2.0	.	-1.1
Fc1cccc(CN2CCN(Cc3nc(CCc4ccccc4)no3)CC2)c1	6.1%	8.2	-6.6	.	-2.0
Cc1ccc(-n2nc3c(c2NC(=O)c2ccc(OC(C)C)cc2)CS(=O)C3)cc1 (configuration not stated)	1.8%	-0.3	1.8	-8.9	-3.4
CS(=O)(=O)c1cccc(C(=O)Nc2cccc(-c3nc4ccccc4[nH]3)c2)c1	.	.	2.8	.	-4.1
Fc1ccccc1/C=C1\CCCC2=C1Nc1nnnn1C2c1ccccc1F (configuration not stated)	-0.3%	-6.3	4.0	-33.2	1.4
COC(=O)c1sc(N2CCN(c3ccc(Cl)cc3)CC2)nc1N	-0.7%	4.0	-0.8	.	-0.2
Nc1nc2ncc(C(=O)c3cc(Cl)cc(Cl)c3O)cc2s1	-0.3%	.	0.3	.	2.5
CCC(=O)N1CCN=C1SCc1c(F)cccc1Cl	.	.	-1.0	.	-1.2
Cc1cc(Cl)c2oc(C(=O)N(C)CCCCN3CCOCC3)c(C)c2c1	.	.	-5.3	.	-2.7
COc1ccc(CC(=O)Oc2ccc(C(C)(C)C)cc2)cc1S(=O)(=O)N1CCOCC1	.	.	-3.5	.	10.4
Cc1ccc(S(=O)(=O)NCCC(=O)OCC(=O)N(Cc2ccccc2)C(C)(C)C)cc1C	.	.	-9.9	.	7.7
Cc1ccc(S(=O)CCNC(=O)Cc2ccccc2)cc1 (configuration not stated)	6.0%	0.4	-12.0	.	.
CCCCN(C)CCCNC(=O)c1cc(-c2cccnc2)nc2ccccc12	.	.	-0.3	.	-0.8
COc1ccccc1N(CC(=O)Nc1ccc2c(c1)OCCO2)S(=O)(=O)c1ccc(C)cc1	.	.	-10.1	.	-12.3
O=C(NCCC1CCCCN1S(=O)(=O)c1ccccc1)C(=O)NCc1ccncc1 (configuration not stated)	.	.	-6.3	.	0.7
Cc1ccc(Nc2nc(CSc3nnc(-c4ccncc4)n3-c3ccccc3C)cs2)cc1	12.8%	-18.1	0.7	-7.7	16.7
COc1ccc(O)c(C(=O)c2cnc3c(c2)c(C)nn3C)c1	.	.	0.1	.	0.2
CC1(C)CC(CNCCC(c2ccc(F)cc2)c2ccco2)CCO1 (configuration not stated)	3.4%	.	-2.0	.	2.1

Seven compounds drawn at random from the list so far, as already listed:
SMILES	Mtb H37Rv	Arbovirus anti	Mtb bLac sens	YopH PTP inh	RecA intein inh	others
O=C(Nc1nnc(C2CC2)s1)C1=NN(C2CCS(=O)(=O)C2)C(=O)CC1 (configuration not stated)	7.5%	7.9	1.1	.	-0.1
Cc1cc(C)cc(N(C(=O)c2csnn2)C(C(=O)NC(C)(C)C)c2cccnc2)c1 (configuration not stated)	-4.4%	-4.3	-1.8	.	-2.2
CC1(C)CC(CNCCC(c2ccc(F)cc2)c2ccco2)CCO1 (configuration not stated)	3.4%	.	-2.0	.	2.1
CCCC(=O)Nc1ccc2c(c1)Cc1ccccc1-2	.	.	74.2	.	0.3
Cc1cccc(C)c1OCc1cc(C(=O)N2CCCCCCC2)no1	.	.	?	.	5.8
CCN1C[C@@]2(COC)C3[C@@H](OC)[C@H]4[C@@H]1[C@@]3(C1C[C@@]3(O)[C@H](OC(=O)c5ccccc5)C1[C@]4(OC(C)=O)[C@@H](O)[C@H]3OC)[C@@H](OC)C[C@H]2O (some centres not stated)	4.7%	.	3.9	.	4.2
Cc1ccccc1C1NC(c2ccccc2C)C(C)C(=O)C1C (configuration not stated)	.	.	5.3	.	9.3

The list continues:
SMILES	Mtb H37Rv	Arbovirus anti	Mtb bLac sens	YopH PTP inh	RecA intein inh	others
N#CC1=C(N)N(c2ncn[nH]2)C2=C(C(=O)CCC2)C1c1ccc(F)cc1 (configuration not stated)	-3.0%	4.0	2.0	-26.8	-1.9
CCCNCc1cc(OCC)c(OCC(N)=O)cc1Br	4.1%	1.9	-12.2	8.7	-0.3
COc1ccccc1N1CCN(C(=O)CC2NC3CCCCC3NC2=O)CC1 (configuration not stated)	.	-2.0	-5.5	-4.9	0.8
COc1cc2c(cc1NC(=O)C(C)OC(=O)/C=C/c1ccc(OC(F)F)cc1)oc1ccccc12 (configuration not stated)	45.6%	0.2	73.2	-29.6	5.4
C[C@@H]1CN(Cc2nc(-c3ccc(Cl)cc3)no2)C[C@H](C)O1	-6.2%	2.2	-0.8	.	-0.1
Cc1ccc(CS(=O)(=O)CCC(=O)NCc2ccccn2)cc1	-1.4%	4.0	-9.5	-15.5	1.2
Cc1cccc(S(=O)(=O)NNC(=O)c2cc(-c3ccc(F)cc3)nc3ccccc23)c1	-0.7%	4.2	-5.1	.	5.6
COC(=O)c1cc(-c2cc(OC)ccc2OC)nc2c1c(=O)n(C)c(=O)n2Cc1ccccc1	.	.	-1.3	.	-11.4
Cc1cc(C)c2nc(NC(=O)CN3C(=O)NC4(CCCC4)C3=O)sc2c1	.	.	-4.2	.	-5.3
CN(C)c1ccc(/C=N/NS(=O)(=O)c2ccc(Br)cc2)cc1	-4.2%	.	-6.8	.	0.0
Oc1cc2c(cc1O)C(c1ccccc1)CNCC2 (configuration not stated)	-13.1%	.	4.7	.	-4.3
Cc1ccc(C)c(OCCCCn2cnc3ccccc3c2=O)c1	59.1%	1.3	8.3	-1.0	2.5
CCC(C)n1c(SCC(=O)NC(=O)c2cccn2C)nc2ccccc2c1=O (configuration not stated)	-4.9%	-6.9	-4.2	.	23.8
Cc1ccn2c(=O)c(NC(=O)c3cccs3)c(C)nc2c1	.	.	-10.8	.	-5.3
CN1CCc2c(sc(NC(=O)CS(=O)(=O)c3ccccc3)c2C(N)=O)C1	.	.	-4.8	.	-5.0
Cc1ccc(OCC(=O)Nc2cccc(O)c2)cc1C	-4.2%	-0.2	-12.7	-20.0	2.4
Cc1cccc(OCCN2CCOCC2)c1C	.	.	-1.9	.	-0.5
CCC(C)(C)NC(=O)c1cc(S(=O)(=O)N2CCCCC2)ccc1N1CCOCC1	0.1%	-1.8	2.0	.	-0.5
COc1ccc(-n2nc(C(=O)NCC(=O)Nc3ccc(F)cc3)c3ccccc3c2=O)cc1	.	.	3.3	.	-9.0
CCn1c(CNC(=O)c2cccc(C)c2)nnc1SCC(=O)Nc1nnc(C)s1	.	.	-10.0	.	-4.5
COc1ccc(S(=O)(=O)N2CCC(C(=O)NCC3CC3)CC2)cc1	.	.	3.7	.	-2.7
Cc1cc(C)cc(NC(=O)CSc2nc3ccncc3[nH]2)c1	13.5%	3.8	-6.8	-16.5	0.5
Cn1nnnc1-c1cc(Br)ccc1NC(=O)c1ccccc1	8.7%	-6.8	8.6	-42.3	1.2
CN(C/C=C/c1ccccc1[N+](=O)[O-])Cc1ccccc1	.	.	-3.4	.	0.3
COC(OC)c1ccnc(-c2ccc(OC(=O)c3ccc(F)cc3)cc2)n1	-2.5%	3.4	23.5	.	0.4
CN(C)S(=O)(=O)c1ccc(C(=O)NCc2ccco2)cc1	-15.7%	11.1	0.2	.	-0.6
CN(C)S(=O)(=O)c1cccc(C(=O)NCC2CCCCC2)c1	.	.	-1.5	.	-0.8
CC1(c2ccc(OC(F)F)cc2)NC(=O)N(CC(=O)Nc2ccc(OC(F)F)cc2)C1=O (configuration not stated)	.	.	-3.8	.	-2.7
CSc1ncccc1C(=O)NC1CCN(Cc2ccccc2)CC1	.	.	?	.	1.5
O=C(CSc1ccc(-c2ccc(Br)cc2)nn1)N1CCOCC1	-2.7%	-1.7	-3.7	.	-0.6
COc1cc2c(cc1O)C(SC)=NC(C)(C)C2	-4.0%	-3.7	76.7	8.1	.
O=[N+]([O-])c1cccc(CSC2=NCCN2S(=O)(=O)c2ccccc2)c1	.	.	?	.	9.4
COC(=O)C/C=C/[C@@H](C)[C@@H](/C=N/OC[C@H]1O[C@H](c2ccccc2)C=C[C@@H]1Oc1ccc(OC)cc1)OC	.	5.3	0.1	-15.2	1.4
CCOc1ccc(NC(=O)CN2C(=O)C3CCCN3C2=O)cc1 (configuration not stated)	-7.5%	-3.0	5.2	-10.5	-4.4	Arbovirus anti repeat=0.6

Three structures from above, sorted by formula weight, low to high.
SMILES	Mtb H37Rv	Arbovirus anti	Mtb bLac sens	YopH PTP inh	RecA intein inh	others
COc1cc2c(cc1O)C(SC)=NC(C)(C)C2	-4.0%	-3.7	76.7	8.1	.
CSc1ncccc1C(=O)NC1CCN(Cc2ccccc2)CC1	.	.	?	.	1.5
COC(=O)C/C=C/[C@@H](C)[C@@H](/C=N/OC[C@H]1O[C@H](c2ccccc2)C=C[C@@H]1Oc1ccc(OC)cc1)OC	.	5.3	0.1	-15.2	1.4

Source: PubChem BioAssay (several laboratories)
